Source: PubChem (National Center for Advancing Translational Sciences (NCATS))
TRPML1 agonist – human mucolipin-1 channel agonism; Q9GZU1; TRPML1-expressing cells, Ca2+ dye fluorescence, FDSS; host cell line not named in the record; reference of the full effect not given here; activation, % (test concentration not listed); 0.12% of 410,000 active; AID 624414; in the data active = activation above about 50%; inconclusive = about 30% to 50%; inactive = below about 30%; also: 0% is about no effect; the text of the record puts the active cut at 80%
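Agonist activity was taken from a 110 s kinetic Ca2+ dye read on the FDSS after pinning compounds onto TRPML1-DL cells. The cells were seeded at 1,500/well with Tet inducer, incubated about 16 h, then dye-loaded at room temperature.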
PINK1 expr mod – changes PINK1 expression | PINK1 immunofluorescence, high-content cytometry, 24 h | Potency, µM (titrated, usually from 76.6 µM), for inactives: at the highest dose activation (PINK1 increase), hits mostly activators | 0.2% of 410,000 active | AID 624263; active = well fitted activation curve with a large enough effect; inconclusive = small, poorly fitted or top-dose-only effect; inactive = flat fitted curve, though single readings scatter; cell line not stated here;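 also: potency is read from the fitted curve at half-maximal effect; % of control where 0% means no effect; nearly all actives have a fitted effect of over 65% in size; a mitochondrial uncoupler was the plate control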
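PINK1 protein level read as immunofluorescence by microplate cytometer in a fixed, stained stable cell line after 24 h exposure to five compound concentrations, with CCCP as control.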
Six1-Eya2 inh – Six1/Eya2 interaction inhibition; Q15475+O00167; 0.56% of 360,000 active; AlphaScreen GST-Six1/His-Eya2 binding, biochemical; active compounds read low; control for the full effect not named in the record; activity change, % (no concentration beside the values); in the data active = activity change below about -65%; inconclusive = about -30% to -65%; inactive = above about -30%; also: % is scaled to controls: 0 for no effect and ±100 for the full control effect
Target sequence (O00167 whole entry, looked up): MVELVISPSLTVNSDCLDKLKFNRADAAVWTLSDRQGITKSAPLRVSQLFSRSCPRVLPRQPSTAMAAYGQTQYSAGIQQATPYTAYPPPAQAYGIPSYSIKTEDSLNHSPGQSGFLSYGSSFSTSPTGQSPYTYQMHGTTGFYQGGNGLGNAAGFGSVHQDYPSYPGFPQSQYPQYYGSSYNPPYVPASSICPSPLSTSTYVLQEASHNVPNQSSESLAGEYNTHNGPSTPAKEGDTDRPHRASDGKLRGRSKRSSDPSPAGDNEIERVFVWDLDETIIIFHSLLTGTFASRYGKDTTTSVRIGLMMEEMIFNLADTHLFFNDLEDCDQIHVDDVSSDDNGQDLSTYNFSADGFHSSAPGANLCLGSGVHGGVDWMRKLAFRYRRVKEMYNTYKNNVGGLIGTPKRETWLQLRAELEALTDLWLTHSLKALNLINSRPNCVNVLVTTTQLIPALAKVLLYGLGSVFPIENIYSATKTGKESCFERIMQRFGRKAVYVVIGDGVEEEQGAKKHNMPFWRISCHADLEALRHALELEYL
Target sequence (Q15475 whole entry, looked up): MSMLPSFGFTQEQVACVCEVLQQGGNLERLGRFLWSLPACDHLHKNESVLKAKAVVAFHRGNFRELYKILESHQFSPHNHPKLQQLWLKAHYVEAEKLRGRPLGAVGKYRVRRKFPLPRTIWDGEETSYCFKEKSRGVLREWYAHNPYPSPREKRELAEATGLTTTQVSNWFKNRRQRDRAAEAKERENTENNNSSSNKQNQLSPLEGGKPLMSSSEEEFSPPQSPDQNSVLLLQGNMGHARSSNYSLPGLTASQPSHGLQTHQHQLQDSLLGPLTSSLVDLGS
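AlphaScreen with GST-Six1 and His-Eya2 (5X mix: 250 nM and 500 nM), glutathione donor and nickel acceptor beads; buffer 50 mM Tris pH 8.0, 300 mM NaCl, 1 mM TCEP; 1 h at 37 C in the dark.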
D2 ag – activates the human D2 dopamine receptor; P14416; DiscoveRx PathHunter D2 beta-arrestin, luminescence, 90 min; 100% = 57 uM dopamine signal; activation, % (concentration not given with the values); 0.084% of 360,000 active; AID 624465; in the data active = activation above about 40%; inconclusive = about 15% to 40%; inactive = below about 15%; also: compound concentration not given in the record; the text of the record calls up to 30% inactive
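Agonist mode: compounds alone added to overnight-plated D2 PathHunter cells for 90 min at 37 C, with 57 uM final dopamine (EC100) defining full response. Beta-arrestin recruitment detected by chemiluminescent reagent, read after 1 h at ambient temperature.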
D2 PAM – potentiates the human D2 dopamine receptor allosterically. P14416. DiscoveRx D2 beta-arrestin cells, luminescence, 90 min; 100% = 57 uM dopamine signal. potentiation, % (test concentration not listed). 0.23% of 360,000 active. AID 624464; active = potentiation of 50% or more; inconclusive = 30% to 50%; inactive = 30% or less;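 also: compound concentration not given in the record; tested on top of an EC20 dose of dopamine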
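D2 cells co-treated with compound plus 50 nM dopamine (EC20) for 90 min at 37 deg C to detect potentiation. Beta-arrestin recruitment was read as enzyme-fragment luminescence after 1 h at ambient temperature. Full response was set by 57 uM dopamine.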
TRPML1 inh – human mucolipin-1 channel inhibition; TRPML1-inducible cells, Ca2+ dye fluorescence, FDSS; active compounds read low; inhibition of EC80 agonist-evoked calcium signal; activity change, negative = inhibition, % (test concentration not listed); AID 624415; 0.02% of 390,000 active; Q9GZU1; in the data active means activity change below about -50%; inconclusive means about -30% to -50%; inactive means above about -30%;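 also: stimulus is agonist 54-4 at its EC80 concentration; % is scaled to controls: 0 for no effect and ±100 for the full control effect; compound concentration not given in the record; the text of the record puts the active cut at -80%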
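TRPML1-DL cells, Tet-induced overnight (~16 h, 37 °C) at 1,500 cells/well, were loaded with Ca8 no-wash dye plus quencher for 45-90 min at room temperature. Compounds were pinned during FDSS kinetic reading; agonist 54-4 at EC80 (4 uM final) then added.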
* = called active by the depositor; ? = inconclusive; · = no result given; [ ] = another dose, or the depositor's remark.

SMILES	TRPML1 agonist	PINK1 expr mod	Six1-Eya2 inh	D2 ag	D2 PAM	TRPML1 inh
COc1ccccc1N=Cc1c(C)[nH]n(-c2ccc(C)cc2C)c1=O	0.2	7.1%	-21.7	2.6	-6.3	-0.7
O=C(NC(=S)N1CCN(c2nc(-c3ccccc3)cs2)CC1)c1cccnc1	0.4	4.1%	1.4	-2.2	-8.4	-12.9
CCOc1ccc(-n2c(SCC(=O)Nc3cc(C)on3)nc3c(c2=O)SCC3)cc1	0.9	13.8%	21.5	4.5	0.0	-6.6
O=C(NCCCN1CCN(c2ccc(F)cc2)CC1)c1cc2c(Cl)nc3ccccc3c2s1	-0.9	0.6%	·	·	·	45.5
Cn1cc(/C=C(\NC(=O)c2ccccc2)C(=O)NCCN2CCOCC2)c2ccccc21	-0.2	1.2%	6.7	-1.3	-16.3	-5.9
CCOC1=C2CN(S(=O)(=O)c3ccc(C)cc3)[C@H](c3cccc4ccccc34)C[C@H]2[C@H]2C(=O)N(c3ccccc3)C(=O)[C@H]2C1	-0.8	0.1%	0.4	5.1	-6.0	·
CC(C)c1ccc(NC(=O)CSc2nc3ccccc3nc2Cc2ccccc2)cc1	3.1	-3.3%	·	·	·	21.2
CCn1cc(C(=O)NCCc2ccc(OC)c(OC)c2)c(=O)c2cc(S(=O)(=O)N3CCCCCC3)ccc21	-0.9	1.1%	·	·	·	-3.0
CC1CN(Cc2nc3c(c(=O)n(C)c(=O)n3C)n2CCCO)CC(C)O1 (stereo unspecified)	-0.6	28.0%[38.3 µM]	25.8	-3.1	-5.8	6.4
O=C(NCc1ccccc1Cl)C1CCCN(c2ncnc3c2nc2n3CCCCC2)C1 (stereo unspecified)	1.2	0.4%	0.7	-3.1	-2.6	-4.5
CC(C)N1C(=O)CC(Nc2cccc3cccc(N)c23)C1=O (stereo unspecified)	-0.1	2.0%	-2.3	3.8	16.4	-0.9
O=C(CC1C(=O)N(c2ccccc2)C(=O)N1Cc1ccc2c(c1)OCO2)Nc1ccccc1 (stereo unspecified)	0.6	0.3%	·	·	·	-1.4
Cc1ccc(-c2nc3ccc([N+](=O)[O-])cc3[nH]2)cc1	2.7	1.5%	4.4	-0.3	-1.3	6.0
Cc1nc(Nc2cccc(C(C)O)c2)c2nnn(Cc3ccccc3F)c2n1 (stereo unspecified)	1.3	-0.7%	2.3	4.1	-1.5	22.5
Cc1cc(Cl)ccc1OCCNC(=S)NC(=O)c1cccnc1	0.6	11.7%	26.2	-2.4	-23.2	-5.5
Cc1cccc(-c2noc(CCC(=O)NC3CCCC3)n2)c1	-0.2	1.4%	6.6	-4.9	-3.7	-5.1
COc1ccc(N2CCN(S(=O)(=O)c3ccc(OC)c(C(=O)N4CCOCC4)c3)CC2)cc1	0.2	0.0%	6.0	-3.9	-9.0	3.7
COc1ccc(CN(C)C(=O)c2ccc(OCC(=O)N3CCOCC3)c(OC)c2)cc1	1.7	3.1%	2.9	-6.4	-10.1	5.9
CC1=NCCN1S(=O)(=O)c1ccc(Br)c(C)c1	-0.3	-0.9%	0.4	-1.9	-7.7	5.6
CCOc1ccc2nc(SCC(=O)NC3CCCc4ccccc43)sc2c1 (stereo unspecified)	3.5	2.9%	10.5	0.7	-3.0	5.3

The closing 4 entries of the section above open the next one.
SMILES	TRPML1 agonist	PINK1 expr mod	Six1-Eya2 inh	D2 ag	D2 PAM	TRPML1 inh
COc1ccc(N2CCN(S(=O)(=O)c3ccc(OC)c(C(=O)N4CCOCC4)c3)CC2)cc1	0.2	0.0%	6.0	-3.9	-9.0	3.7
COc1ccc(CN(C)C(=O)c2ccc(OCC(=O)N3CCOCC3)c(OC)c2)cc1	1.7	3.1%	2.9	-6.4	-10.1	5.9
CC1=NCCN1S(=O)(=O)c1ccc(Br)c(C)c1	-0.3	-0.9%	0.4	-1.9	-7.7	5.6
CCOc1ccc2nc(SCC(=O)NC3CCCc4ccccc43)sc2c1 (stereo unspecified)	3.5	2.9%	10.5	0.7	-3.0	5.3
CCC(=O)Nc1ccc(C(=O)COC(=O)CCN2C(=O)C3CC=CCC3C2=O)cc1 (stereo unspecified)	0.0	1.4%	2.1	-1.8	-68.9	-5.3
COc1ccc(N2CCN(C(=O)CCNS(=O)(=O)c3ccc(Br)s3)CC2)cc1	0.0	0.5%	-13.0	-0.6	-5.7	-3.8
COC(=O)c1ccc2nc(-c3ccc(F)cc3)c(Cc3ccccc3C(F)(F)F)n2c1	-0.6	1.9%	-6.7	·	·	·
CC(=O)c1cc(CC=C(C)C)c(O)cc1O	1.7	1.8%	0.0	-0.4	-13.1	-1.2
CC1CCc2[nH]c3ccc(C(=O)N(C)CC(=O)Nc4ccc(F)cc4)cc3c2C1 (stereo unspecified)	0.6	-0.5%	-12.1	-2.0	5.2	2.4
Cc1cc(C)cc(NC(=O)Cn2cc(C(=O)c3cccs3)c3ccccc32)c1	0.5	1.3%	·	·	·	-29.6
COc1ccc(C)cc1NC(=O)COC(=O)c1ccccc1SCC(=O)N1CCCC1	-0.2	5.3%	-6.4	-7.3	-24.6	-0.8
Cc1cc(NC(=O)CSc2ccc3nnc(CCNS(=O)(=O)c4ccccc4)n3n2)no1	0.5	-1.5%	5.9	-2.9	-8.6	-10.6
O=C1NCCCCC1NS(=O)(=O)c1ccc(F)c(F)c1 (stereo unspecified)	0.5	1.0%	8.9	-3.9	-5.9	-13.4
CCN(C[C@H]1N[C@@](C)(C(=O)OC)[C@H]2C(=O)N(C)C(=O)[C@@H]12)S(=O)(=O)c1ccccc1	-0.8	3.8%	3.7	-0.7	-1.4	43.5
O=C(O)COc1ccc(/C=N/NC(=O)c2cccc3ccccc23)cc1	-0.3	1.0%	1.0	1.5	0.1	28.7
COc1cc(/C=C(\C#N)c2nc3ccccc3[nH]2)ccc1O	·	2.8%	-10.6	-8.9	-30.7	·
Cc1ccc(F)cc1NC(=O)Cc1ncc(C(F)(F)F)cc1Cl	0.0	-3.2%	5.3	-0.2	-10.6	4.1
Cc1ccc2cccc(OCCCOc3ccccc3F)c2n1	1.1	3.2%	8.1	-2.5	-3.0	12.2
O=C1CCC[C@@H]2Cc3[nH]c4c(Cl)ccc(Cl)c4c3[C@@H]3CCN1[C@H]23	-0.6	-0.4%	-1.5	-1.5	-35.3	-6.0
Cc1cc(=O)oc2cc(OCC(=O)OC(C)C(=O)NC3CCCC3)ccc12 (stereo unspecified)	0.5	1.4%	0.6	-2.8	-7.0	6.7
Cc1ccc(S(=O)(=O)N/N=C/c2ccc(C#N)cc2)cc1	1.1	0.7%	5.6	-7.6	-24.8	-11.2
NC(=O)CCC(=O)N1CCCC(C(=O)c2ccc(C(F)(F)F)cc2)C1 (stereo unspecified)	0.2	1.1%	9.4	3.5	-3.0	-12.5
CCc1ccc(S(=O)(=O)N2CCN(C(=O)C3CCN(C(C)=O)CC3)CC2)cc1	-0.3	2.4%	1.3	1.7	-5.1	8.4
Cc1ccc(-c2cc(-c3ccco3)c3c(N)c(C(=O)NN)oc3n2)cc1	2.4	1.8%	-2.0	0.1	-13.2	-6.4
Cc1noc(C)c1CSCC(=O)N(C)CC(=O)Nc1ccc(F)c(F)c1F	-0.8	0.8%	1.9	-2.6	-23.9	-8.4
CN(c1ccc([N+](=O)[O-])cc1C(=O)Nc1ccccc1)C1CCCCC1	2.6	1.4%[38.3 µM]	-7.1	-5.9	-8.7	36.8
COC(=O)c1cn(CC(=O)N2CCCCCC2)c2ccccc12	-0.6	-1.8%	9.8	-1.4	-14.3	11.2
COC(=O)[C@@H]1C[C@@H](C(=O)O)[C@H](C)C1(C)C	-0.4	0.0%	11.0	-1.7	-5.2	-5.7
COC(=O)c1cc(NC(=O)Cn2ncc3c([nH]c4ccccc43)c2=O)cc(C(=O)OC)c1	1.5	3.7%	·	·	·	18.6
COc1ccc(S(=O)(=O)N2CCOCC2)cc1NC(=O)CSc1nnnn1C1CC1	0.1	2.6%	-1.0	-2.2	-9.0	7.2
CCOc1ccc(-n2cc(C(=O)c3cc(Cl)ccc3O)cc(C#N)c2=O)cc1	0.6	?	-1.6	2.9	5.3	19.7
CN(C)C(CNC1CC(C)(C)NC(C)(C)C1)c1cccc(F)c1 (stereo unspecified)	0.8	-1.4%	2.4	-6.2	-7.4	18.1
Fc1ccc(Nc2nc(Nc3ccc(F)cc3)nc(N3CCOCC3)n2)cc1	1.7	3.8%	·	·	·	13.0
C[C@H](NC(=O)C1CC(=O)N(c2ccc(F)cc2)C1)C(=O)N1CCCCC1 (stereo partly specified)	0.9	-0.2%	10.4	1.3	-7.1	23.8
COc1cc(OC)c(OC)cc1/C=N/NC(=O)C[n+]1ccccc1	0.4	-1.5%	5.2	-2.6	-23.2	-0.4
COc1ccc(COC(=O)c2ccc(Cl)c(S(=O)(=O)N3CC(C)OC(C)C3)c2)cc1 (stereo unspecified)	1.2	1.4%	11.4	-0.7	-3.5	25.9
Cc1ccc(CCNC(=O)C2CCN(S(=O)(=O)c3cccc4nonc34)CC2)cc1	-0.7	3.2%	-3.5	-5.8	-1.0	5.9
COc1ccc2c(CNC3CCCC3)c(C(=O)O)n(Cc3ccccc3C)c2c1	-0.8	-1.2%	·	·	·	-5.8
COCCN(C(=O)/C=C/c1ccccc1)c1c(N)n(Cc2ccccc2)c(=O)[nH]c1=O	1.0	0.4%	2.3	-3.3	-1.5	15.2
COC(=O)C1=C(CS(=O)(=O)c2ccc(Cl)cc2)NC(=O)NC1c1ccc(O)cc1 (stereo unspecified)	-1.1	-1.7%	5.7	2.9	-4.3	-10.3
C=CCN(CC=C)C(=S)Nc1ccc(OC)c(OC)c1	0.3	3.1%	7.2	-4.6	-2.3	31.0
CCC(C)n1c(=O)c2sccc2n2c(CCCC(=O)N3CCN(c4ccccc4)CC3)nnc12 (stereo unspecified)	0.6	0.9%	·	·	·	12.5
N#Cc1c(NCCO)nc(NCc2ccccc2)c2c1CCN(Cc1ccccc1)C2	0.1	-1.4%	-16.3	0.8	-1.3	22.9
O=C(NCCc1nc(-c2ccccc2)cs1)c1ccc(Br)cc1	3.2	-2.7%	-2.4	-1.5	-11.8	-19.3

Continued, starting with the last 2 of the part before.
SMILES	TRPML1 agonist	PINK1 expr mod	Six1-Eya2 inh	D2 ag	D2 PAM	TRPML1 inh
N#Cc1c(NCCO)nc(NCc2ccccc2)c2c1CCN(Cc1ccccc1)C2	0.1	-1.4%	-16.3	0.8	-1.3	22.9
O=C(NCCc1nc(-c2ccccc2)cs1)c1ccc(Br)cc1	3.2	-2.7%	-2.4	-1.5	-11.8	-19.3
CCOC(=O)c1ccc(OCCOc2ccccc2C)cc1	1.5	4.3%	56.4	-3.6	-6.2	10.8
O=C(COC(=O)/C(=C/c1cccs1)c1cccs1)NC(c1ccccc1)c1ccccc1	-0.7	-2.8%	-27.2	-1.6	-7.2	-8.0
O=C(Cc1nc2ccccc2[nH]1)c1ccc([N+](=O)[O-])cc1	1.0	-0.6%	-9.6	4.1	-3.8	-0.3
COc1ccc([C@@H]2CC(=O)[C@@H]3CN(S(=O)(=O)c4ccc(Cl)cc4)[C@H](c4ccc(C)cc4)C[C@@H]3N2S(=O)(=O)c2ccccc2)cc1	0.9	-0.2%	7.7	-2.8	-6.2	·
